Screening results from PubChem.
HSD17B inhib: HSD17B dehydrogenase inhibition. Q99714. recombinant HSD17B10, NADH fluorescence kinetic; many of its hits are not listed in these tables. Potency, µM (highest dose often 57.1 µM), for the others: top-dose activity change, negative = inhibition, most hits filed as inhibitors. actives 7.6% (n = 75,000); active = well fitted inhibition curve with a large enough effect; inconclusive = small, poorly fitted or top-dose-only effect; inactive = no such curve, though single readings can be large or run the other way;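 also: the protocol describes HADH2 (HSD17B10) and not the HSD17B4 of the title; nearly all actives have a fitted effect of over 70% in size; most hits overshoot -100% by far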
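20 nM HADH2, pH 9.0 Tris/Tween; cpd preinc 15 min RT; start w/ 1 mM NAD+ + 90 uM b-hydroxybutyryl-CoA; kinetic fluor ex360/em450 q30s x 4 min; delta last-first.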
Numbers without * were called inactive; i = inactive; u = inconclusive; & = joins results of further samples; [ ] = dose if it differs, or a comment. % is scaled to controls: 0 for no effect and ±100 for the full control effect; potency is read from the fitted curve at half-maximal effect. The list is partial (hit frequency here may not be typical).

SMILES	HSD17B inhib
COc1cc(C(=O)N(Cc2ccco2)Cc2cc3ccccc3[nH]c2=O)cc(OC)c1OC	u
Cc1ccc(C)c(Cn2nnc3c(=O)[nH]c(C(=O)NCC4CCCO4)nc32)c1 (stereo unspecified)	5%
O=S(=O)(c1ccc2ccccc2c1)N1CCCOC1	-8%
Cn1nc(CC(=O)Nc2ccc3c(c2)OCCO3)c2ccccc2c1=O	3%
CCOC(=O)N1CCN(C(=O)C2CCCN(c3nc4ccc(OCC)cc4s3)C2)CC1 (stereo unspecified)	8%
O=C(NC12CC3CC(CC(C3)C1)C2)N1CCN(S(=O)(=O)c2ccc(Cl)cc2)CC1	-2%
CC1(C)Cc2c(sc3nc(SCC(=O)N4CCOCC4)nc(N)c23)CO1	-3%
Oc1cc(O)c2c(c1)O[C@H](c1ccc(O)c(O)c1)[C@H](O)C2	3%[25.6 µM]
CC(=O)c1cc(CN2C(=O)c3ccccc3C2=O)cs1	5%
C1CCN(c2nc(N3CCCC3)nc(N3CCNCC3)n2)C1	1%
COc1cc(OC)c(C2=NOC(C(=O)Nc3c(C)nn(CC(=O)N4CCCC4)c3C)C2)cc1Cl (stereo unspecified)	2%
Cc1cc(O)c(C(=O)c2ccccc2C(=O)O)cc1C	-2%
CCO/C(C)=N/n1c2nc3ccccc3nc2c2c(=O)n(C3CCCC3)c(C)nc21	-14%
[O-][N+](CCO)(CCO)c1ncnc2nc[nH]c12	12%[11.4 µM]
CC1CN(C(=O)C(C)N2C(=O)c3ccccc3C2=O)CC(C)O1 (stereo unspecified)	6%
CCOc1cc2c(C#N)c(N3CCOCC3)nc(N)c2c(N)n1	32µM*
COC1=CC(=O)C=C(OC)C1=O	1%
c1cnn(-c2cc(N3CCOCC3)ncn2)c1	-17%
O=c1cc(-c2ccccc2)nc2nc(COc3ccccc3)[nH]n12	-13%
CCCn1c(C)nc2c(N3CCC(N4CCN(C)CC4)CC3)nc(C)nc21	10%

Some of the entries so far, field by field:
COC1=CC(=O)C=C(OC)C1=O
  HSD17B inhib: 1%
CCOc1cc2c(C#N)c(N3CCOCC3)nc(N)c2c(N)n1
  HSD17B inhib: 32µM*

Following part:
SMILES	HSD17B inhib
COC(=O)C1=C(C)NC(C)=C(C(=O)OC)C1C(=O)OC1CCCCC1=O (stereo unspecified)	u
CCCC12CN3CC(C)(CN(C1)C3c1ccc3c(c1)OCO3)C2=O (stereo unspecified)	2%
O=C(NCc1ccccc1)c1n[nH]nc1-c1ccccc1O	0%
Cc1cccc(CC2CC(=O)N(C3CCCCC3)C2=O)c1 (stereo unspecified)	-1%
CN(Cc1nc(-c2ccncc2)no1)S(=O)(=O)c1ccc(Br)cc1	1%
CCN(CC)C(=O)C1CCCN(Cc2ccc(OC)c(C)c2C)C1 (stereo unspecified)	5%
CCOC(=O)N1CCC(N2C(=O)c3cc(C(=O)NC4CCCCC4)ccc3C2O)CC1 (stereo unspecified)	-3%
Cc1ccc(-n2ncc3c(=O)n(CC(=O)NCC4CCCO4)cnc32)cc1 (stereo unspecified)	u
COc1cccc(CN2CCCN(S(=O)(=O)c3ccc(Br)cc3)CC2)c1	-1%
O=C(Nc1ccc2nc(-c3ccc(Br)o3)[nH]c2c1)c1cccs1	-9%
CCCCOCCCNC(=O)N[C@@H](CC(C)C)C(=O)O	17%
CN(C)c1ccnc(-c2ccccc2C(F)(F)F)n1	u
COC(=O)CN(c1ccccc1F)S(=O)(=O)c1ccccc1	1%
O=C1CCC(=O)N1CCCCCc1nc(-c2ccccc2)no1	2%
O=C(CCC1CCCC1)N1CCN(C(=O)c2cccnc2)CC1	2%
CCn1c(SCC(=O)N2CCCc3ccccc32)nc2c1c(=O)n(C)c(=O)n2C	-1%
CC(C)(C)OC(=O)N1CCC[C@H]1c1nnc(SC/C=C/c2ccccc2)o1	-14%
CCC(=O)Nc1ccc(C(=O)Nc2cccnc2)cc1	5%
CCC(=O)Nc1c(C(=O)Nc2cccc(OC)c2)oc2ccccc12	43%[activator]
CCOc1ccc(C2CC(c3ccccc3C)n3ncnc3N2)cc1 (stereo unspecified)	8%

Individual results from the results shown.
Entry for CCOc1ccc(C2CC(c3ccccc3C)n3ncnc3N2)cc1 (stereo unspecified) in HSD17B inhib: 8%
Entry for c1cnn(-c2cc(N3CCOCC3)ncn2)c1 in HSD17B inhib: -17%

(more compounds)
SMILES	HSD17B inhib
Cc1nc(SCC(=O)N2CCN(c3ccccc3)CC2)c2oc3ccccc3c2n1	u
O=C(c1ccco1)N1CCN(/C(=N/S(=O)(=O)c2cccs2)c2ccccc2Cl)CC1	-13%
COc1ccc(OC)c(NC(=O)C2=C(C)Nc3ncnn3C2c2cccs2)c1 (stereo unspecified)	-6%
COc1cccc(C2CC(C(F)(F)F)n3nc(C(=O)NCc4cccnc4)cc3N2)c1 (stereo unspecified)	0%
Cc1ccc(S(=O)(=O)NC(=O)Nn2c(C)nnc2C)cc1	2%
O=C1C[C@@H](O)[C@@H](O)[C@H]2[C@@H]3C(=O)N(c4cccc(Oc5ccccc5)c4)C(=O)[C@@H]3CC[C@H]12	-1%&7%[11.4 µM]
COC(=O)c1ccc(C2c3c(n[nH]c3C)C(=O)N2c2ccc(C)cc2)cc1 (stereo unspecified)	2%
C/C(N)=C(/C#N)C(=O)CSc1nnc(NC(C)C)s1	-18%
COc1cccc(-c2ccc3ncnc(NCc4ccccc4)c3c2)c1	25µM*
CN(C)C(CNC(=O)Nc1cccc(Cl)c1)c1cccnc1 (stereo unspecified)	2%
Cc1nc2cc(Cl)ccc2n1CCO	-8%
Cc1ccc(-c2noc(CCC(=O)NCC3CCN(Cc4cccc(C)c4)CC3)n2)cc1	-5%
CCOC(=O)c1c(C)n(C)c2ccc(OCC(O)CN3CCCCCC3)cc12 (stereo unspecified)	0%
O=C(OC1CCOC1=O)c1ccc(-c2nc3ccccc3s2)s1 (stereo unspecified)	i
COc1nc(Nc2ccc(C(C)=O)cc2)nc(OC)n1	4%
CCC(=O)N1CCc2cc(S(=O)(=O)N3CCN(c4ccccn4)CC3)ccc21	-24%
COCCCNC(=O)Cn1cc2c(n1)CCCCC2	8%
CCOC(=O)C1CCCN(S(=O)(=O)c2cc(Br)cc3c2N(C(=O)C2CC2)CC3)C1 (stereo unspecified)	4%
COc1ccc(N2CCN(C(=O)CCN3C(=O)c4ccccc4S3(=O)=O)CC2)cc1	12%
CC(C)C(C)C	2%
COc1cc2c(c(O)c1OC)C(=O)C(OC)CCC2 (stereo unspecified)	4%
Cc1cccc2cc(CN(CC3CCCO3)C(=O)c3ccncc3)c(=O)[nH]c12 (stereo unspecified)	-28%
CCOC(=O)C1CCCN(c2c(NCCN(C)Cc3ccccc3)c(=O)c2=O)C1 (stereo unspecified)	0%
CCCCc1c(O)nc2n(c1=O)CCS2	14%
CCN1CCCC1CNC(=O)c1nn(-c2ccc(C)cc2)c(=O)c2c1c1ccccc1n2C (stereo unspecified)	u
CCOC(=O)N1CCc2c(sc3c2C(=O)NC(c2ccccc2)N3)C1 (stereo unspecified)	u
CCCCCOC(=O)C1[C@H]2C(=O)N(CCCOC)C[C@]23C=C[C@H]1O3 (stereo partly specified)	1%
CCOc1ccc(C(C)=O)cc1CSc1nnc(-c2ccoc2C)n1N	-6%
O=C(/C=C/c1ccc(O)cc1)c1ccc(O)cc1O	2%[11.4 µM]
Cc1cc(/C=N/n2cnnc2)c(C)n1-c1ccc2ncccc2c1	u
Cc1nccc2[nH]c(=O)c(C(=O)NC3CCN(Cc4ccccc4)CC3)cc12	4%
CC(C)CN(C(=O)c1ccc(=O)n(C)n1)c1nc2ccccc2s1	-2%
O=C(O)c1cccc(CN2C(=O)CSC2=O)c1	-3%
Cc1cc(C)nc(Nc2ccc(N3CCCC3)cc2)n1	-3%
CC[C@]1(O)C[C@@H]2CN(CCc3c([nH]c4ccccc34)[C@](C(=O)OC)(c3cc4c(cc3OC)N(C)[C@H]3[C@](O)(C(=O)OC)[C@@H](C(=O)OC)[C@@]5(CC)C=CCN6CC[C@@]43[C@@H]65)C2)C1	-23%
CC1CCCCN1S(=O)(=O)c1coc(C(N)=O)c1 (stereo unspecified)	3%
COc1cc(NC(=O)CCCC(=O)OCC(F)(F)C(F)F)nc(OC)n1	-3%
Nc1nc2c(cnn2CCc2ccccc2)c2nc(-c3ccco3)nn12	25µM*
CCOC(=O)c1ccc(NC(=O)CSc2nnc(C)n2-c2ccccc2)cc1	-4%
COC(=O)C1=C(C)NC(C)=C(C(=O)OC)C1c1cc2ccc(C)cc2[nH]c1=O	u
CCOc1ccc(NC(=O)CCN2CCN(c3ccccc3)CC2)cc1	1%
S=c1[nH]nc(-c2ccccc2Cl)n1CC1CCCO1 (stereo unspecified)	4%
Cc1noc(/C=C/N(C)C)c1S(=O)(=O)N1CCCC(C(=O)NCc2ccco2)C1 (stereo unspecified)	-3%
CC1CCCC(C)N1C(=O)Cn1c(SCC(=O)Nc2ccc3c(c2)OCO3)nc2ccccc21 (stereo unspecified)	-2%
CCOC(=O)CSc1ncnc2c1cnn2-c1ccccc1	-10%
CN(C)C(=O)N1CCN(C(=O)N(C)C)CC1	-5%
O=C(CN1CCOCC1)NCCNC(=O)CN1CCOCC1	6%
CC1Cc2ccccc2N1C(=O)c1ccc2snnc2c1 (stereo unspecified)	-6%
Cc1ccc(S(=O)(=O)Nc2cc(C(=O)O)ccc2N2CCCCC2)cc1	-4%
Cc1ccc(S(=O)(=O)Cc2ccc(C(=O)N3CCN(c4ccccn4)CC3)o2)cc1	8%
(next part)
SMILES	HSD17B inhib
NC1(C(=O)OCc2ccccc2)CCCC1	-23%[11.4 µM]
CCOc1cc(NC(=O)c2ccco2)c(OCC)cc1NC(=O)CCc1ccccc1OC	u
COc1ccc(CCNC(=O)Cn2c(=O)n(Cc3ccco3)c(=O)c3ccc(Cl)cc32)cc1OC	8%
O=C(NCCc1ccccc1)C1CCN(S(=O)(=O)c2cccs2)CC1	17%
COc1ccc(NC(=O)N(CCCN(C)C)Cc2cc3cc(OC)ccc3[nH]c2=O)cc1	32µM*
CC(C)N1CCN(c2ccc(OC[C@@H]3CO[C@@](Cn4cncn4)(c4ccc(Cl)cc4Cl)O3)cc2)CC1	-5%[25.6 µM]
CCC1S/C(=C(\C#N)C(N)=O)N(c2ccc(F)cc2)C1=O (stereo unspecified)	-3%
CC(C)OC(=O)c1nnc(Cc2ccc(Cl)cc2)o1	5%
Cc1oc(-c2ccc(Cl)cc2)nc1CN1CCCC(C(=O)NCc2ccco2)C1 (stereo unspecified)	4%
COC(=O)Cc1ccc2c3ccccc3n(C)c2c1	-2%
O=C(NCCc1ccccc1)c1c(O)c2cccc3c2n(c1=O)CC3	-10%
S=c1[nH]nc(COc2ccccc2)n1C1CCCCC1	-18%
COCCn1c(=O)c(-c2cn(C)c3ccccc23)nc2cncnc21	0%
O=C(Nc1ccncc1)Nc1ccccn1	2%
Cc1cc(NC(=O)CSc2nnc(C(C)N(C)C)n2Cc2ccccc2)no1 (stereo unspecified)	14%
COc1cccc(S(=O)(=O)Nc2ccc(C(=O)N3CCOCC3)cc2)c1	-2%
CC1CCCN(C(=O)c2ccc3c(c2)C(=O)N(CCC2=CCCCC2)C3=O)C1 (stereo unspecified)	-7%
Cc1c(NS(=O)(=O)c2ccc3c(c2)c(=O)n(C)c(=O)n3C)c(=O)n(-c2ccccc2)n1C	5%
COCCn1c(=O)c(-c2cccc(C#N)c2)nc2cnc(Oc3ccc(OC)cc3)nc21	-9%
Cc1nnc(NC(=O)c2cc3n(n2)C(C(F)(F)F)CC(C2CC2)N3)s1 (stereo unspecified)	7%
COC(=O)c1ccc2c(c1)NC(=O)C(N1CCOCC1)S2 (stereo unspecified)	8%
O=C(CSc1nnc(-c2ccco2)o1)N1c2ccccc2CCc2ccccc21	u
CC1=C(C(=O)Nc2ccc(F)cc2)C(c2ccncc2)C2=C(CCCC2=O)N1 (stereo unspecified)	u
C=CCOc1ccc(NC(=O)C2CC(=O)N(C(C)C)C2)cc1 (stereo unspecified)	8%
CCOC(=O)CN(C(=O)CSc1nnc(CNc2ccc(C)cc2C)n1CC)c1ccccc1	7%
O=C1OC(=O)C2C3CCC(O3)C12 (stereo unspecified)	7%&3%
O=c1cc(CO)occ1O	-1%
Cc1cc(=O)c2ccccc2s1	1%
Cc1cccc(NC(=O)C2c3ccccc3C(=O)N3CCc4ccccc4C23)n1 (stereo unspecified)	4%

Among those listed so far, these have a furan ring, fused or not.
SMILES	HSD17B inhib
COc1cc(C(=O)N(Cc2ccco2)Cc2cc3ccccc3[nH]c2=O)cc(OC)c1OC	u
O=C(Nc1ccc2nc(-c3ccc(Br)o3)[nH]c2c1)c1cccs1	-9%
CCC(=O)Nc1c(C(=O)Nc2cccc(OC)c2)oc2ccccc12	43%[activator]
Cc1nc(SCC(=O)N2CCN(c3ccccc3)CC2)c2oc3ccccc3c2n1	u
O=C(c1ccco1)N1CCN(/C(=N/S(=O)(=O)c2cccs2)c2ccccc2Cl)CC1	-13%
CCOc1ccc(C(C)=O)cc1CSc1nnc(-c2ccoc2C)n1N	-6%
CC1CCCCN1S(=O)(=O)c1coc(C(N)=O)c1 (stereo unspecified)	3%
Nc1nc2c(cnn2CCc2ccccc2)c2nc(-c3ccco3)nn12	25µM*
Cc1noc(/C=C/N(C)C)c1S(=O)(=O)N1CCCC(C(=O)NCc2ccco2)C1 (stereo unspecified)	-3%
Cc1ccc(S(=O)(=O)Cc2ccc(C(=O)N3CCN(c4ccccn4)CC3)o2)cc1	8%
CCOc1cc(NC(=O)c2ccco2)c(OCC)cc1NC(=O)CCc1ccccc1OC	u
COc1ccc(CCNC(=O)Cn2c(=O)n(Cc3ccco3)c(=O)c3ccc(Cl)cc32)cc1OC	8%
Cc1oc(-c2ccc(Cl)cc2)nc1CN1CCCC(C(=O)NCc2ccco2)C1 (stereo unspecified)	4%
O=C(CSc1nnc(-c2ccco2)o1)N1c2ccccc2CCc2ccccc21	u
